Vaccinia stage – Vaccinia orthopox stage-specific inhibition | Vaccinia-infected cells, mCherry/Venus stage reporter fluorescence; stronger effect = lower value; some inactives read as strong as hits | activity change (mCherry), % (test concentration not listed) | 89,000 tested, 0.01% active;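 active means mCherry past -33% and 40 or more points under the early reporter, replicates agreeing; inconclusive means past -33% without that gap or agreement; tested in A549 cells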;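 further: scaled between vehicle wells and reference inhibitor wells; 23 nL library stock went into each well; one replicate is shown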
Vaccinia stage Venus – recorded beside Vaccinia stage, whose call it bears; activity change (Venus), %; measured here: Venus reporter, other viral stage;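 negative = less Venus signal; first of two replicates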
The depositor's hits bear a star; ? = inconclusive; . = not tested or not shown; & = joins results of further samples. A portion of the library; rates above refer to the full screens.

SMILES	Vaccinia stage	Vaccinia stage Venus
COc1cccc(S(=O)(=O)N(C)C[C@@H]2Oc3cc(C#CCC(C)C)ccc3S(=O)(=O)N([C@H](C)CO)C[C@H]2C)c1	-28	-25
CCC(=O)NC[C@@H]1[C@H](c2ccc(-c3ccccc3)cc2)[C@@H](CO)N1C(=O)C1CC1	-4	4
C[C@@H](NC(=O)C[C@@H]1CC[C@H](NC(=O)Nc2ccc3c(c2)OCO3)[C@@H](CO)O1)c1ccccc1	7	8
C[C@@H]1CN([C@H](C)CO)C(=O)c2cccc(NS(=O)(=O)c3cn(C)cn3)c2O[C@H]1CN(C)C(=O)Nc1cccc2ccccc12	37	15
C[C@H]1CCCCO[C@@H](CN(C)C(=O)Nc2ccc(F)cc2)[C@@H](C)CN([C@@H](C)CO)C(=O)c2cc(NC(=O)c3ccccc3)ccc2O1	?	.
C[C@@H]1CN([C@@H](C)CO)C(=O)c2cc(C#C[C@@H](C)O)cnc2O[C@H]1CN(C)CC1CCCCC1	23	14
C[C@H]1CCCCO[C@H](CN(C)C(=O)Cc2ccccc2)[C@@H](C)CN([C@@H](C)CO)C(=O)c2cc(NS(=O)(=O)c3cn(C)cn3)ccc2O1	23	12
C[C@H]1CN([C@@H](C)CO)C(=O)Cc2cc(NC(=O)Cc3cn(C)c4ccccc34)ccc2O[C@H]1CN(C)C	0	3
COC(=O)c1cn(CC(=O)N2CCC3(CC2)C(=O)NCN3c2ccccc2)nn1	12	14
CN(C)C(=O)[C@@H]1[C@@H](CO)[C@@H]2Cn3c(ccc(C4=CCCC4)c3=O)[C@H]1N2C(=O)Nc1ccccc1	-4	5
C[C@H](CO)N1C[C@H](C)[C@H](CN(C)S(C)(=O)=O)Oc2ccc(NS(=O)(=O)c3cccs3)cc2C1=O	17	9
COCCNC(=O)C[C@@H]1CC[C@H]2[C@H](COc3ccc(NC(=O)C4CCOCC4)cc3C(=O)N2C)O1	-7	6
CCCN1[C@@H]2c3ccc(-c4ccc(OC)cc4)c(=O)n3C[C@@H]2[C@@H](CO)[C@@H]1C(=O)N(C)C	6	12
C[C@@H]1CCCCO[C@H](CN(C)C(=O)C2CCCCC2)[C@@H](C)CN([C@H](C)CO)C(=O)c2cc(N(C)C)ccc2O1	-20&8	-15&1
COc1ccc(CN(C)C[C@H]2OCCCC[C@@H](C)Oc3ccc(NS(=O)(=O)c4ccc(C)cc4)cc3C(=O)N([C@@H](C)CO)C[C@H]2C)cc1	?	.
CO[C@H]1CN(C)C(=O)c2cccc(C#N)c2OC[C@@H]2O[C@H](CC[C@H]2OC)CCN(C)C(=O)[C@H]1C	3	2
COc1ccc(C#Cc2cnc3c(c2)C(=O)N([C@H](C)CO)C[C@H](C)[C@H](CN(C)S(=O)(=O)c2cccs2)O3)cc1OC	-24&11	-20&1
Cc1ccc(S(=O)(=O)Nc2ccc3c(c2)C(=O)N([C@@H](C)CO)C[C@@H](C)[C@H](CN(C)C(=O)c2ccccc2)OCCCC[C@@H](C)O3)cc1	-15	-10
CO[C@H](CN(C)C(=O)Nc1ccc(Cl)cc1)[C@@H](C)CN(Cc1ccccc1Cl)[C@@H](C)CO	-24	-13
O=C(CCN1CCCCC1)NCC[C@@H]1CC[C@H](NC(=O)C2CCCC2)[C@@H](CO)O1	3	-8
CCC(=O)N1[C@@H]2c3cccc(=O)n3C[C@@H]2[C@@H](CO)[C@@H]1C(=O)NC1CCCC1	10	6
CNC[C@@H]1Oc2cc(C#Cc3cccc(OC)c3)ccc2S(=O)(=O)N([C@@H](C)CO)C[C@H]1C	-34	-39
C[C@H]1CN([C@@H](C)CO)C(=O)c2cccc(NS(=O)(=O)c3ccc(Cl)cc3)c2O[C@H]1CN(C)Cc1ccc(C(F)(F)F)cc1	?	.
O=C(CCN1CCCCC1)NCC[C@@H]1CC[C@@H](NC(=O)C2CCCCC2)[C@H](CO)O1	1	3
COc1cccc(-c2ccc([C@@H]3[C@H]4CN(C(=O)C5CCC5)CC(=O)N4[C@H]3CO)cc2)c1	-33	-30
COC(=O)C[C@H]1CC[C@H]2[C@@H](COC[C@@H](O)CN2S(=O)(=O)c2ccccc2C)O1	10	20
O=C(O)[C@H]1[C@H](CO)[C@H]2Cn3c(ccc(C4=CCCC4)c3=O)[C@@H]1N2C(=O)Cc1ccccn1	18	7
C[C@H](CO)N1C[C@H](C)[C@@H](CN(C)Cc2ccc(C(=O)Nc3ccccc3N)cc2)Oc2ccc(NS(=O)(=O)c3ccc(F)cc3)cc2C1=O	13	4
C[C@@H]1CN([C@@H](C)CO)S(=O)(=O)c2ccc(C#CC3CC3)cc2O[C@@H]1CN(C)C(=O)Cc1ccncc1	-3	-5
COc1ccc(NC(=O)Nc2ccc3c(c2)C(=O)N([C@@H](C)CO)C[C@@H](C)[C@H](CN(C)C(=O)Nc2cccc4ccccc24)OCCCC[C@@H](C)O3)cc1	36	18
CC(C)C#Cc1ccc2c(c1)O[C@H](CN(C)C(=O)Nc1ccccc1)[C@@H](C)CN([C@@H](C)CO)S2(=O)=O	?	.
COc1ccc(NC(=O)Nc2ccc3c(c2)CC(=O)N([C@H](C)CO)C[C@@H](C)[C@@H](CN(C)Cc2ccncc2)O3)cc1	23	17
O=C(Nc1ccccc1F)N1C[C@H]2[C@@H](c3ccccc31)[C@H](CO)N2C(=O)Cc1ccccc1	6	5
COc1ccc(C#Cc2cnc3c(c2)C(=O)N([C@H](C)CO)C[C@H](C)[C@H](CN(C)C(=O)CN(C)C)O3)cc1	-24	-6
CCNC(=O)C[C@H]1CC[C@H]2[C@@H](COc3ccc(NC(=O)c4cc(C)on4)cc3C(=O)N2C)O1	-3	-3
CN(C)C(=O)c1cccc(-c2ccccc2[C@H]2[C@@H](C#N)N(C(=O)C3CC3)[C@@H]2CO)c1	12	12
COCC(=O)N(C)C[C@@H]1Oc2ncc(-c3ccc(C)cc3)cc2C(=O)N([C@H](C)CO)C[C@@H]1C	11	8
C[C@@H]1CN([C@@H](C)CO)C(=O)c2cccc(NS(C)(=O)=O)c2O[C@@H]1CN(C)C	15	12
C[C@@H]1CN([C@H](C)CO)C(=O)c2cccc(NC(=O)c3ccncc3)c2O[C@H]1CN(C)Cc1ccncc1	6	5
C[C@@H]1CN([C@@H](C)CO)C(=O)c2c(c3ccccc3n2C)-c2ccccc2CO[C@H]1CN(C)S(=O)(=O)Cc1ccccc1	?	.
O=C(Nc1ccc2c(c1)[C@H]1C[C@H](CC(=O)N3CCCCC3)O[C@@H](CO)[C@H]1O2)c1ccc2c(c1)OCO2	15	6
C[C@H]1CN([C@@H](C)CO)C(=O)c2cc(C#CCN(C)C)cnc2O[C@H]1CN(C)Cc1ccccc1	11	5
C[C@@H]1CN([C@@H](C)CO)C(=O)c2cc(N(C)C)ccc2O[C@@H](C)CCCCO[C@@H]1CN(C)C(=O)Nc1cccc2ccccc12	3	-1
C[C@@H]1CN([C@@H](C)CO)C(=O)c2cccc(NS(=O)(=O)c3ccc(F)cc3)c2O[C@H]1CN(C)Cc1ccncc1	8	5
CC(C)C#Cc1ccc([C@@H]2[C@@H](C#N)N(C(=O)CN(C)C)[C@H]2CO)cc1	-5	-2
C[C@H]1CN([C@@H](C)CO)C(=O)c2cc(NC(=O)Nc3ccc4c(c3)OCO4)ccc2O[C@H]1CN(C)CC1CCCCC1	10	9
CCC(=O)Nc1ccc2c(c1)OC[C@H](C)N(C(=O)CC1CC1)C[C@H](C)[C@H](OC)CN(C)C2=O	-8	-8
C[C@@H](O)C#Cc1ccc2c(c1)O[C@H](CN(C)Cc1ccc(-c3ccccc3)cc1)[C@@H](C)CN([C@@H](C)CO)S2(=O)=O	?	.
C[C@@H]1CCCCO[C@H](CN(C)C(=O)Cc2ccccc2)[C@@H](C)CN([C@@H](C)CO)C(=O)c2cc(NC(=O)Nc3ccc(C(F)(F)F)cc3)ccc2O1	-20	-15
CN(C)C(=O)c1ccc(-c2ccc3c(c2)[C@@H]2[C@@H](CCN2C(=O)C2CCCCC2)[C@@H](CO)N3C)cc1	-9	-15

Another view of part of the listing above:
Below each SMILES – Vaccinia stage, Vaccinia stage Venus
C[C@@H]1CN([C@H](C)CO)C(=O)c2cccc(NS(=O)(=O)c3cn(C)cn3)c2O[C@H]1CN(C)C(=O)Nc1cccc2ccccc12
 : 37, 15
C[C@H]1CCCCO[C@@H](CN(C)C(=O)Nc2ccc(F)cc2)[C@@H](C)CN([C@@H](C)CO)C(=O)c2cc(NC(=O)c3ccccc3)ccc2O1
 : ?, .

(next part)
SMILES	Vaccinia stage	Vaccinia stage Venus
C[C@@H]1CN([C@@H](C)CO)C(=O)c2cc(NS(=O)(=O)c3ccc(Cl)cc3)ccc2O[C@H]1CN(C)Cc1ccc(Cl)c(Cl)c1	?	.
CN1C(=O)c2cc(NC(=O)Nc3ccccc3Cl)ccc2OC[C@@H]2O[C@@H](CC(=O)NCCCN3CCOCC3)CC[C@@H]21	7	9
COc1ccccc1NC(=O)N[C@@H]1CC[C@H](CCNS(=O)(=O)c2ccc(C)cc2)O[C@H]1CO	6	5
Cc1noc(C)c1NC(=O)N(C)C[C@@H]1Oc2ccc(NC(=O)CCCN(C)C)cc2C(=O)N([C@H](C)CO)C[C@H]1C	45	27
CC(C)NC(=O)N1[C@H](C#N)[C@@H](c2ccc(C#CC3CCCC3)cc2)[C@H]1CO	5	12
CN(C)CC(=O)Nc1ccc2c(c1)[C@@H]1C[C@@H](CC(=O)NCc3ccccc3)O[C@H](CO)[C@@H]1O2	11	5
C[C@@H]1CN([C@H](C)CO)C(=O)Cc2cc(N(C)C)ccc2O[C@@H]1CN(C)S(=O)(=O)c1ccc(Cl)cc1	1	-4
CO[C@H]1CN(C)C(=O)c2ccc(NC(=O)Nc3ccccc3F)cc2OC[C@H](C)N(CC2CC2)C[C@H]1C	-16	-12
C[C@@H]1CN([C@H](C)CO)C(=O)c2cc(NS(=O)(=O)c3ccc(Cl)cc3)ccc2O[C@@H]1CN(C)Cc1ccc(Oc2ccccc2)cc1	?	.
C[C@@H]1CN([C@H](C)CO)C(=O)c2cc(NS(C)(=O)=O)ccc2O[C@@H](C)CCCCO[C@H]1CN(C)C(=O)Nc1ccc2c(c1)OCO2	21	8

A stretch of the results above:
SMILES	Vaccinia stage	Vaccinia stage Venus
C[C@@H]1CN([C@@H](C)CO)C(=O)c2cc(NS(=O)(=O)c3ccc(Cl)cc3)ccc2O[C@H]1CN(C)Cc1ccc(Cl)c(Cl)c1	?	.
CN1C(=O)c2cc(NC(=O)Nc3ccccc3Cl)ccc2OC[C@@H]2O[C@@H](CC(=O)NCCCN3CCOCC3)CC[C@@H]21	7	9

Later entries:
SMILES	Vaccinia stage	Vaccinia stage Venus
C/C=C/c1cccc(-c2nc(C(=O)NC3Cc4ccccc4C3)cc3c2[C@H](CCO)N(C(C)=O)C3)c1	?	.
CCCC(=O)Nc1ccc2c(c1)C(=O)N(C)[C@H]1CC[C@H](CC(=O)NCC3CC3)O[C@H]1CO2	-21	-23
C[C@@H]1CN([C@@H](C)CO)C(=O)c2cccc(NC(=O)Nc3ccc(C(F)(F)F)cc3)c2O[C@H]1CN(C)C(=O)NC1CCCCC1	?	.
O=C(Nc1ccc2c(c1)[C@H]1C[C@@H](CC(=O)N3CCCCC3)O[C@@H](CO)[C@H]1O2)NC1CCCC1	-8	-8
COc1ccc(NC(=O)N(C)C[C@H]2Oc3ncc(C#C[C@@H](C)O)cc3C(=O)N([C@H](C)CO)C[C@H]2C)cc1	4&31	10&16
C[C@H](CO)N1C[C@H](C)[C@@H](CN(C)S(=O)(=O)c2ccccc2)Oc2ccc(NS(=O)(=O)c3ccc(F)cc3)cc2CC1=O	-10	-2
CCCNC(=O)[C@@H]1[C@@H](CO)[C@@H]2Cn3c(ccc(-c4ccc(OC)cc4)c3=O)[C@@H]2N1CC	0	7
O=C(N[C@H]1CC[C@H](CCNS(=O)(=O)c2ccc(F)cc2)O[C@H]1CO)C1CCC1	6	3
Cc1ccc(S(=O)(=O)N(C)C[C@H]2OCCCC[C@@H](C)Oc3ccc(NS(=O)(=O)c4c(C)noc4C)cc3C(=O)N([C@@H](C)CO)C[C@@H]2C)cc1	?	.
C[C@@H]1CN([C@H](C)CO)S(=O)(=O)c2ccc(-c3ccc(F)cc3)cc2O[C@@H]1CN(C)C(=O)Nc1ccccc1F	?	.
C[C@@H]1CCCCO[C@@H](CN(C)C(=O)c2ccccc2)[C@@H](C)CN([C@H](C)CO)C(=O)c2cc(NS(=O)(=O)c3ccc(Cl)cc3)ccc2O1	15	17
O=C(Nc1ccc(F)cc1)N1CC(=O)N2[C@H](CO)[C@@H](c3ccc(-c4cccc(F)c4)cc3)[C@@H]2C1	-27	-13
C[C@@H]1CN([C@@H](C)CO)C(=O)Cc2cc(NC(=O)Nc3ccc4c(c3)OCO4)ccc2O[C@@H]1CN(C)C(=O)Nc1cccc2ccccc12	5	7
Cc1ccccc1S(=O)(=O)N1C[C@H](O)COC[C@@H]2O[C@@H](CC(=O)NCCc3ccccc3)CC[C@H]21	-8	-8
CO[C@@H]1CN(C)C(=O)c2ccc(NS(C)(=O)=O)cc2OC[C@H](C)N(C(=O)CC2CC2)C[C@H]1C	12	4
CO[C@H]1CN(C)C(=O)c2cc(NC(=O)Nc3ccccc3Cl)ccc2OC[C@@H](C)NC[C@@H]1C	-15	-7
CC(C)(C)[S@@](=O)N1Cc2cc(C(=O)NC3CCCCC3)nc(-c3cccc(Br)c3)c2[C@H]1CCO	-18	-2
O=C1N[C@H](Cc2ccccc2)COCn2nncc2CC[C@H]1Cc1ccccc1	10	3

2 compounds picked at random from the list so far, as already listed:
SMILES	Vaccinia stage	Vaccinia stage Venus
CO[C@H]1CN(C)C(=O)c2cc(NC(=O)Nc3ccccc3Cl)ccc2OC[C@@H](C)NC[C@@H]1C	-15	-7
C[C@@H]1CN([C@@H](C)CO)C(=O)Cc2cc(NC(=O)Nc3ccc4c(c3)OCO4)ccc2O[C@@H]1CN(C)C(=O)Nc1cccc2ccccc12	5	7

Compound activity from PubChem.
